Screening data deposited in PubChem by several laboratories.
BJeLR lethal: BJeLR cell viability loss | BJeLR (HRASV12) viability, CellTiter-Glo ATP luminescence, 48 h; reference of the scale not given here | inhibition, % (concentration not given with the values) | 300,000 compounds, 0.17% hits | AID 1554;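 active = replicate mean above 50%; inconclusive = above 50% but judged a plate artefact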;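 also: 50 nL library stock added to about 25 µL; numbers are from one replicate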
Mtb hypoxia inh: inhibitors of hypoxia-regulated fluorescent reporter in Mycobacterium tuberculosis | fluorescence inhibition, % (no concentration beside the values) | AID 1159583 | 300,000 compounds, 0.1% hits | M. tuberculosis hypoxia-regulated fluorescent reporter, fluorescence;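 active = 35 to 45% if threefold the growth effect, above 45% if 1.5-fold the growth effect; inactive = the rest, general growth blockers included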;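 also: wells of about 50 µL received 100 nL stock; 0% = vehicle wells and 100% = reference inhibitor wells; whole bacteria with a GFP reporter of the hypoxia response; strong numbers were not always called active; many hits fall short of the cut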
Sa ugtP lethal: kills S. aureus RN4220 lacking UgtP. S. aureus RN4220 ugtP deletion, OD600 growth, 16 h; some inactives read as strong as hits. growth inhibition, % (no concentration beside the values). 330,000 compounds, 0.54% hits. AID 1259309;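 active = z-score under -3 and OD600 up to 0.15 on both plates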;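 also: plate controls were untreated wells for no effect and antibiotic for full effect; wells of about 80 µL received 100 nL stock; the first replicate is given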
PrP UTR inh: inhibition of PrP 5' UTR reporter expression. cell-based PrP 5' UTR mRNA reporter, plate reader. inhibition, % (test concentration not listed). 340,000 compounds, 0.35% hits;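 active = every replicate at 50% or more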;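 also: 0 = median of the neutral control wells; tested in H4 reporter cells; numbers are from one replicate; inactives centre near -14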
Sa RN4220 lethal: kills Staphylococcus aureus RN4220. S. aureus RN4220 growth, OD600, 16 h. inhibition, % (no concentration beside the values). 330,000 compounds, 0.33% hits. AID 1259311;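 active = z-score of -3 or lower and OD600 up to 0.18 on both plates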;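 also: plate controls were untreated cells for no effect and reference antibiotic for full effect; stock transfer was 100 nL into about 80 µL; one replicate is shown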
Autofluor counter: counter-screen for toxin protease inhibitors: compound fluorescence. compound autofluorescence counterscreen, microsphere flow cytometry; hits give high values. fluorescence intensity (concentration not given with the values). 360,000 compounds, 3.1% hits;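 active = at least 3 SD above the mean of all compounds, about 16000 in these data; inconclusive = too few beads counted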;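 also: 100 nL of 1 mM stock went into each well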
Mtb hypoxia inh growth: also measured in Mtb hypoxia inh; calls as there; growth inhibition, %; measured here: M. tuberculosis growth (absorbance);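 0% = vehicle and 100% = reference antibiotic; read after six days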
* hit, by the source's call; ? = inconclusive; / = no result given.

SMILES	BJeLR lethal	Mtb hypoxia inh	Mtb hypoxia inh growth	Sa ugtP lethal	PrP UTR inh	Sa RN4220 lethal	Autofluor counter
CC(/C=C/c1ccco1)=NNC(=O)C(O)c1ccccc1 (configuration not stated)	/	-1	-9	5	/	3.4	/
c1cnc(-c2noc(CN3CCN(C4C5CC6CC(C5)CC4C6)CC3)n2)cn1 (configuration not stated)	9	13	7	2	-14	2.0	2095
Cc1c2cnn(CC(=O)NCCN3CCOCC3)c(=O)c2c(C)n1Cc1ccc(F)cc1	4	9	7	1	-29	-12	6057
O=C(CNc1cccc(C(F)(F)F)c1)NN=Cc1cccc(Br)c1	/	7	1	-18	/	-1.6	/
COc1ccc(C(=O)NN=C(C)CC(=O)Nc2cccc(C(F)(F)F)c2)cc1	/	19	2	-1	/	3.1	/
CS(=O)(=O)N(CC(=O)Nc1cccc(F)c1)Cc1ccccc1	3	6	10	-5	-7	7.2	7925
OCCC1CN(Cc2c(F)cccc2Cl)CCN1C1CCCCC1 (configuration not stated)	25	-8	-1	11	-21	3.0	2911
COc1ccc(N2CCN(C(=O)COC(=O)Cc3cccc(OC)c3)CC2)cc1	17	5	2	10	-23	1.8	6207
O=C(Nc1cccc(Cn2cccn2)c1)c1cc2c(s1)CCCC2	1	3	5	-13	-69	2.5	16682*
COc1ccc(C(=O)c2ccc(Cl)cc2)cc1	2	/	/	6	-20	14	4900

Rewritten with two lines to a compound: entries from further up
The line under a structure holds: BJeLR lethal	Mtb hypoxia inh	Mtb hypoxia inh growth	Sa ugtP lethal	PrP UTR inh	Sa RN4220 lethal	Autofluor counter
> c1cnc(-c2noc(CN3CCN(C4C5CC6CC(C5)CC4C6)CC3)n2)cn1 (configuration not stated)
→ 9	13	7	2	-14	2.0	2095
> Cc1c2cnn(CC(=O)NCCN3CCOCC3)c(=O)c2c(C)n1Cc1ccc(F)cc1
→ 4	9	7	1	-29	-12	6057
> O=C(CNc1cccc(C(F)(F)F)c1)NN=Cc1cccc(Br)c1
→ /	7	1	-18	/	-1.6	/
> COc1ccc(C(=O)NN=C(C)CC(=O)Nc2cccc(C(F)(F)F)c2)cc1
→ /	19	2	-1	/	3.1	/

Next structures:
SMILES	BJeLR lethal	Mtb hypoxia inh	Mtb hypoxia inh growth	Sa ugtP lethal	PrP UTR inh	Sa RN4220 lethal	Autofluor counter
COCOc1ccc(/C=C2/Oc3cc(OCOC)cc(OCOC)c3C2=O)c(OCOC)c1	-2	/	/	-3	/	2.9	4046
CCc1ccc(NC(=O)c2ccc3nc(N)sc3c2)cc1	-9	/	/	-16	-45	-3.1	2713
COc1cccc(C=NNc2ncnc3c2ncn3Cc2ccccc2)c1O	/	7	2	2	/	9.4	/
COc1cc(CC(=O)Nc2cc(S(=O)(=O)N3CCOCC3)ccc2N2CCCC2)cc(OC)c1OC	/	4	4	0	13	2.6	?
Cc1nc(SCC(=O)N(C)C2(C#N)CCCCC2)c2ccccc2n1	/	23	5	1	-7	1.7	5183
CN(Cc1ccccc1)C(=O)c1ccc(S(=O)(=O)N(C)c2ccccc2)cc1	/	4	3	1	-19	6.9	3579
Cc1ccccc1-c1cc(C(=O)NCc2ccco2)nn1CC1CC(c2cccc([N+](=O)[O-])c2)=NO1 (configuration not stated)	/	9	5	9	-9	0.9	4029
CNS(=O)(=O)c1cccc(C(=O)OCC(=O)c2ccc(S(=O)(=O)N3CCCCC3)cc2)c1	-1	/	/	/	-28	/	4618
CC12CCC(C(=O)Nc3ccccc3Br)(CC1=NO)C2(C)C (configuration not stated)	/	-3	6	-13	/	5.3	/
COCCCNC(=S)NN=Cc1ccccc1O	/	-11	-3	15	/	1.6	/

Look-ups from the results shown:
COc1cc(CC(=O)Nc2cc(S(=O)(=O)N3CCOCC3)ccc2N2CCCC2)cc(OC)c1OC – Mtb hypoxia inh growth = 4
COc1cccc(C=NNc2ncnc3c2ncn3Cc2ccccc2)c1O – Mtb hypoxia inh = 7
O=C(CNc1cccc(C(F)(F)F)c1)NN=Cc1cccc(Br)c1 – Sa ugtP lethal = -18
c1cnc(-c2noc(CN3CCN(C4C5CC6CC(C5)CC4C6)CC3)n2)cn1 (configuration not stated) – Sa RN4220 lethal = 2.0
Cc1nc(SCC(=O)N(C)C2(C#N)CCCCC2)c2ccccc2n1 – Autofluor counter = 5183

Additional records.
SMILES	BJeLR lethal	Mtb hypoxia inh	Mtb hypoxia inh growth	Sa ugtP lethal	PrP UTR inh	Sa RN4220 lethal	Autofluor counter
COc1cc(O)c2c(=O)c3c(OC4OC(CO)C(O)C(O)C4O)ccc(O)c3oc2c1 (configuration not stated)	/	2	-17	-2	/	0.0	/
CCOC(=O)N1CCN(Cc2nnc(-c3ccccc3C)o2)CC1	-5	8	12	16	-17	-2.2	3262
C/C(=N\Nc1nc(-c2ccccc2O)nc2ccccc12)c1ccccc1	-1	/	/	/	-26	/	4593
COCCC1CCCCN1C(=O)c1cc(COc2ccc(C)nc2)on1 (configuration not stated)	1	2	7	1	-8	-1.1	5729
CSc1nc(-c2ccccc2)cn1-c1ccc(NC(C)=O)cc1	6	/	/	/	-42	/	2110
C[C@H]1CN([C@@H](C)CO)C(=O)c2cc(NS(=O)(=O)c3ccc(F)cc3)ccc2O[C@H]1CN(C)S(=O)(=O)c1cn(C)cn1	/	2	1	-4	-10	-6.1	3410
O=C(O)C1CCCN1S(=O)(=O)c1ccccc1 (configuration not stated)	2	-21	-3	-12	-13	-7.1	20858*
Cc1cc(NC(=O)CSc2nc3c(c(-c4cccnc4)c2C#N)CCC3)no1	0	12	-2	2	-9	5.3	12975
COc1ccc(C2CC(=O)C=C(c3cc(Cl)ccc3OC)C2)cc1 (configuration not stated)	/	4	2	5	/	4.3	/
O=[N+]([O-])c1ccc(N2CCCCC2)cc1	9	-7	-6	-3	-36	8.6	/

Five consecutive records already listed, quoted:
SMILES	BJeLR lethal	Mtb hypoxia inh	Mtb hypoxia inh growth	Sa ugtP lethal	PrP UTR inh	Sa RN4220 lethal	Autofluor counter
COc1cc(O)c2c(=O)c3c(OC4OC(CO)C(O)C(O)C4O)ccc(O)c3oc2c1 (configuration not stated)	/	2	-17	-2	/	0.0	/
CCOC(=O)N1CCN(Cc2nnc(-c3ccccc3C)o2)CC1	-5	8	12	16	-17	-2.2	3262
C/C(=N\Nc1nc(-c2ccccc2O)nc2ccccc12)c1ccccc1	-1	/	/	/	-26	/	4593
COCCC1CCCCN1C(=O)c1cc(COc2ccc(C)nc2)on1 (configuration not stated)	1	2	7	1	-8	-1.1	5729
CSc1nc(-c2ccccc2)cn1-c1ccc(NC(C)=O)cc1	6	/	/	/	-42	/	2110

(listing goes on)
SMILES	BJeLR lethal	Mtb hypoxia inh	Mtb hypoxia inh growth	Sa ugtP lethal	PrP UTR inh	Sa RN4220 lethal	Autofluor counter
CCc1cc2c(C)cc(C)cc2nc1SCC(=O)Nc1cc(C)on1	-8	2	1	10	-26	8.9	4096
S=c1[nH]nc(CSCCOc2ccc(Cl)cc2Cl)o1	10	3	5	4	-26	39	6367
CSCC[C@H](NS(=O)(=O)c1ccc(C)cc1)C(=O)N1CCC(C(=O)N[C@@H](Cc2ccccc2)C(=O)O)CC1	-3	/	/	9	-26	2.1	5933
O=C(CC12CC3CC(CC(C3)C1)C2)Nc1ccccc1N1CCOCC1	8	16	7	-2	-1	5.7	3828
CC1C(=O)N2CCCc3cc(NC(=O)C(=O)NCc4cccnc4)cc1c32 (configuration not stated)	8	5	4	2	1	1.7	/
Cc1cc(-c2ccccc2)c2c3c(c(-c4ccccc4)n2n1)c(=O)n(C)c(=O)n3C	-2	2	1	28	-51	-4.1	10116
COc1ccccc1CN1CC(C(=O)NCc2ncccc2C)CCC1=O (configuration not stated)	6	9	0	13	-15	-0.3	4461
CN(C)S(=O)(=O)c1ccc(NC(=O)COC(=O)c2n[nH]c3ccccc23)cc1	2	7	12	-2	-6	4.2	2774
COc1ccc(NC(=S)NCCN2CCC(C)CC2)cc1Cl	2	-1	12	4	0	3.2	4098
COc1ccc2c(c1)c1ncn(CCc3ccccc3)c(=O)c1n2C	-2	6	0	11	-21	3.4	8354
COc1cc2c(cc1OC)CN(C(=O)c1ccc(OC)c([N+](=O)[O-])c1)CC2	-13	19	12	2	-19	1.1	5848
OC(COCCOc1ccc(Br)cc1)CN1CCN(Cc2ccccc2)CC1 (configuration not stated)	5	14	12	-6	-17	1.9	2626
COc1cc(C(=O)N(Cc2ccco2)Cc2cc3ccccc3[nH]c2=O)cc(OC)c1OC	-9	3	5	3	-7	3.8	23180*
CN(C)CCNC(=O)c1ccc(CS(=O)(=O)c2c(Cl)cccc2Cl)o1	4	/	/	12	-19	7.8	5544
COc1ccc(CCNC(=O)c2c(-c3ccccc3)noc2C)cc1OC	-7	3	11	6	-25	3.3	8157
Cc1ccc(C)c(Cn2nnc3c(=O)[nH]c(C(=O)NCC4CCCO4)nc32)c1 (configuration not stated)	0	-4	-3	-18	-25	-3.6	11009
O=S(=O)(c1ccc2ccccc2c1)N1CCCOC1	10	18	11	3	-13	5.8	9467
CCOc1ccc(CNc2ccc(S(N)(=O)=O)cc2)cc1	-5	-10	6	14	10	-0.8	2179
CCOc1ccc(Nc2ncnc3c2cnn3Cc2ccccc2)cc1	0	3	5	1	-10	-0.3	7162
CCOC(=O)c1ccccc1NC(=O)CSc1nc(N)cc(=O)[nH]1	10	14	12	-1	3	0.4	4557
Cc1nn(CC(=O)Nc2ccc(Cl)cc2)c(=O)c2cc(-c3ccccc3)nn12	-8	-1	-9	-4	-30	-0.6	5013
CC(C)N(C(=O)Nc1ccc2nccnc2c1)C(C)C	-1	/	/	-11	-22	-7.9	3972
CCCc1cc(C(=O)Nc2cccc3ccccc23)n(C)n1	6	4	1	-4	-15	11	5382
Cc1cnc2cc(Cl)c(Cl)cc2n1	-4	-4	-1	-4	-9	-3.7	9879
c1ccc(CCCCc2ccncc2)cc1	/	16	8	4	-8	5.4	3631
CCCCNC(=O)[C@H](CSCc1ccccc1)N1Cc2ccccc2C1=O	-3	/	/	10	-8	1.1	5205
O=C(Nc1cc2c(oc1=O)CCCC2=O)c1cccc(Cl)c1	-21	3	6	4	-76	7.0	4281
Cc1ccccc1OC/C(O)=C(\C#N)c1nc2ccccc2[nH]1	-5	/	/	/	-29	/	4499
CCOC(=O)N1CCN(C(=O)C2CCCN(c3nc4ccc(OCC)cc4s3)C2)CC1 (configuration not stated)	2	4	9	9	-26	2.2	5742
O=C(NN=Cc1c[nH]c2ccccc12)c1cc(-c2ccccc2)n[nH]1	/	4	2	-18	/	0.9	/
Cn1nc(CC(=O)Nc2ccc3c(c2)OCCO3)c2ccccc2c1=O	6	/	/	-8	-6	-3.4	2672
COc1ccc(S(=O)(=O)N(CCc2ccccc2)CC(=O)N/N=C/c2ccc3c(c2)OCO3)cc1	4	/	/	/	-9	/	7812
O=C(NC12CC3CC(CC(C3)C1)C2)N1CCN(S(=O)(=O)c2ccc(Cl)cc2)CC1	-10	4	7	-4	-6	-1.7	9501
COc1ccc(CCC(C)NC2C3CC4CC(C3)CC2C4)cc1 (configuration not stated)	2	-6	0	0	-8	1.9	7957
CN(C(=O)c1ccc(NC(=O)Cc2ccc(NC(=O)C3CCN(C(=O)C4CC4)CC3)cc2)cc1)C1CC1	/	6	4	2	-2	-9.4	3179
CCc1ccc(NC(=O)CCn2ccnc2C)cc1	-12	8	7	-3	-8	0.5	3918
Cc1ccc(CNC(=O)Cc2nc3nc(C)cc(C)n3n2)cc1	-2	11	7	15	-3	3.2	9018
COc1ccc(CNC(=O)c2cc(C(C)=O)c[nH]2)cc1	1	2	-7	5	-6	4.4	3318
CN(Cc1ccco1)C(=O)CN1C(=O)NC2(CCCC2)C1=O	/	12	1	2	-15	6.0	3429
CC(=O)Oc1ccc(C(=O)Nc2ccccc2NC(=O)c2ccc(OC(C)=O)cc2)cc1	-11	2	3	-7	-20	2.6	3713
COc1ccc(CC2(CO)CCN(C(C)COc3ccccc3)CC2)cc1 (configuration not stated)	-3	9	5	3	-9	-1.2	4832
O=C(/C=C/Nc1ccc(F)cc1F)c1ccco1	10	4	-5	0	51	4.7	2124
CS(=O)(=O)c1ccc(-c2sc3ccccc3c2C#CCCO)cc1	/	5	7	12	-6	-1.9	4303
COc1ccc(C(=O)NC(=S)N2CC(C)OC(C)C2)cc1 (configuration not stated)	6	12	4	6	0	2.6	2569
CCN(CC(=O)NCc1ccc(F)cc1)CC(=O)Nc1ccccc1-c1ccccc1	-9	6	-4	4	4	0.4	3391
COc1ccc(C2SCC(=O)Nc3c2c(C)nn3-c2ccccc2)cc1 (configuration not stated)	10	/	/	-1	-4	-1.0	5052
